Screening data (PubChem BioAssay)
gsp antag – antagonizes gsp, the McCune-Albright syndrome mutation. gsp-mutant cells, cAMP HTRF, 30 min; control for the full effect not named in the record. Potency, µM (series often up to 76.9 µM), inactives show top-dose activity change, negative = inhibition, hits mostly inhibitors. 340,000 compounds, 0.4% hits. AID 624288; active = falling curve of any shape with a large fitted effect; inconclusive = falling curve, mostly with a smaller effect; inactive = flat or rising curve; cell line not stated here;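 note: intracellular cAMP measured with PDE inhibitor Ro 20-1724 present during compound exposure; potency is the fitted concentration of half-maximal effect; % is set by controls: 0 for no effect and ±100 for the full control effect; nearly all actives have a fitted effect of over 65% in size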
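HTRF cAMP read-out (cAMP-d2 plus anti-cAMP antibody-K in lysis buffer, 30 min RT). Before lysis, cells are exposed to compounds with […] for 30 min at 37C in DPBS containing Ca/Mg, BSA and Tween 20.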
Menin-MLL FL inh – inhibitors of human menin-MLL interaction, wild-type MLL peptide | FP activity change, % at 61.4 µM | Fluorescence polarization, fluorescein-MLL peptide displacement from menin | 290,000 tested, under 10 active; inconclusive = falling polarisation curve, or a change in total fluorescence; inactive = total fluorescence flat and polarisation flat or rising; no compound was filed as active; the % refers to the polarisation; negative = inhibition;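 note: % of control where 0% means no effect; inhibitors lower the polarisation; unlabelled MLL peptide was the positive control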
ClpP mod – qHTS Assay for Activators of ClpP | ATP-dependent Clp protease proteolytic subunit (Bacillus subtilis (strain 168)), P80244 | purified B. subtilis ClpP, FRET peptide cleavage, 20 min | Potency, µM (titrated, usually from 57.5 µM), for inactives: at the top dose activity change, negative = active | 340,000 compounds, 1.9% hits; active = well fitted falling curve with a large enough effect; inconclusive = small, poorly fitted or top-dose-only effect; inactive = no such curve, though single readings can be large or run the other way; note: potency is the fitted concentration of half-maximal effect; the source files actives as falling curves though it sought activators and does not explain the sign; nearly all actives have a fitted effect of over 65% in size; many hits overshoot -100%
Target sequence (P80244 whole entry, looked up): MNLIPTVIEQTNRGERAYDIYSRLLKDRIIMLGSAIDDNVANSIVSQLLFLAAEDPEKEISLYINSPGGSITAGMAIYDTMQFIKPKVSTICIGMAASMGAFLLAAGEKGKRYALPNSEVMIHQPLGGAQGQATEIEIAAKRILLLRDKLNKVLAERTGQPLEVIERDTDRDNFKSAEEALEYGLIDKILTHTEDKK
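ClpP 10 microg/mL final, pH 8 Tris/KCl buffer with BSA, glycerol, Tween-20; compound pinned in; FRET-FV substrate; RT 20 min; Ex320/Em430; ΔFRET vs ADEP 5.8 microM, DMSO, no enzyme.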
gsp agonist – activates gsp, the McCune-Albright syndrome mutation; gsp mutant cells, cAMP HTRF, 30 min; control for the full effect not named in the record; Potency, µM (titrated, usually from 76.9 µM), for inactives: at the highest dose activation (cAMP increase), usual class: activators; 340,000 compounds, 0.13% hits; AID 624287; active = well fitted activation curve with a large enough effect; inconclusive = small, poorly fitted or top-dose-only effect, or another doubt; inactive = no such curve, though single readings can be large or run the other way; cell line not stated here;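 note: phosphodiesterase inhibitor Ro 20-1724 added with compounds to block cAMP breakdown; potency is the fitted concentration of half-maximal effect; nearly all actives have a fitted effect of over 60% in size; about a fifth of the inactives were tested at one dose only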
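Cells in DMEM/10% FBS with G418 were pretreated with compounds in DMSO plus […] (300 uM stock) for 30 min at 37C. cAMP was measured by HTRF (cAMP-d2 plus anti-cAMP antibody-K) after 30 min at room temperature.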
PINK1 expr mod – changes PINK1 expression; PINK1 immunofluorescence, high-content cytometry, 24 h; 410,000 compounds, 0.2% hits; AID 624263; Potency, µM (series often up to 76.6 µM), without a hit: top-dose activation (PINK1 increase), actives largely listed as activators; active = well fitted activation curve with a large enough effect; inconclusive = small, poorly fitted or top-dose-only effect; inactive = flat fitted curve, though single readings scatter; cell line not stated here;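 note: potency is the fitted concentration of half-maximal effect; % of control where 0% means no effect; nearly all actives have a fitted effect of over 65% in size; a mitochondrial uncoupler was the plate control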
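A stable cell line was treated with compounds at 5 concentrations for 24 hours, with CCCP as control. PINK1 levels and mitochondrial localization were measured by immunofluorescence with mitochondrial, cell and nuclear markers after fixation, read by laser-scanning cytometry.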
D2 agonist – human D2 receptor agonism in beta-arrestin assay. DiscoveRx PathHunter D2 beta-arrestin, luminescence, 90 min; 100% = 57 uM dopamine signal. 360,000 compounds, 0.084% hits. AID 624465. activation, % (concentration not given with the values); in the data active = activation above about 40%; inconclusive = about 15% to 40%; inactive = below about 15%; note: the text of the record calls up to 30% inactive
Target sequence (P14416 whole entry, looked up): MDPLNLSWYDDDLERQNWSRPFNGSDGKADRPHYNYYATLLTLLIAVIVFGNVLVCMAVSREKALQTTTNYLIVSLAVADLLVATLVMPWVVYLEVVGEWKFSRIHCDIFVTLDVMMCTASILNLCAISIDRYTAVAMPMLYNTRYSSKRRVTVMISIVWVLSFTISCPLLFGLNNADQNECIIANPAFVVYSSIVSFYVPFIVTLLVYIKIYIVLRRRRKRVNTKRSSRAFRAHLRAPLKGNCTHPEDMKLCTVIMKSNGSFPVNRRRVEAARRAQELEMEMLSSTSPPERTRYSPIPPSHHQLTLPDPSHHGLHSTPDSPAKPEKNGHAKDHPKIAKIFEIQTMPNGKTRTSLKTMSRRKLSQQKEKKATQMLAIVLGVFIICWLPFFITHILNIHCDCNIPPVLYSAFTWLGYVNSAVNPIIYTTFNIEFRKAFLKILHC
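Agonist mode: compounds alone added to overnight-plated D2 PathHunter cells for 90 min at 37 C, with 57 uM final dopamine (EC100) defining full response. Beta-arrestin recruitment detected by chemiluminescent reagent, read after 1 h at ambient temperature.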
Sfp PPTase inh – inhibitors of Bacillus subtilis Sfp phosphopantetheinyl transferase. Biochemical Sfp PPTase activity, qHTS. Potency, µM, without a hit: max response, negative = inhibition, hits mostly inhibitors. 310,000 compounds, 3.5% hits. AID 1490; active = well fitted inhibition curve with a large enough effect; inconclusive = small, poorly fitted or top-dose-only effect, or another doubt; inactive = no such curve, though single readings can be large or run the other way;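 note: the enzyme is Sfp with the accession as filed and its product quenches rhodamine fluorescence; potency is the fitted concentration of half-maximal effect; 0% = enzyme reaction without inhibitor and -100% = no enzyme wells; top concentration of the series not given in the record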
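Sfp 15 nM + cpd, 15 min RT; start w/ rhodamine-CoA 5 uM, BHQ-2-YbbR 12.5 uM (final); 50 mM Hepes pH 7.6, 10 mM MgCl2, 0.01% NP-40, 0.01% BSA; read 525/598 nm at 0 and 30 min.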
Starred values were filed as active, the others as inactive; ? = inconclusive; . = no result given; & = joins results of further samples; [ ] = remark or other dose. An unsorted share of the library; overall some 5.1% were active at least once.

SMILES	gsp antag	Menin-MLL FL inh	ClpP mod	gsp agonist	PINK1 expr mod	D2 agonist	Sfp PPTase inh
CCCOC(=S)N/C(=N\S(=O)(=O)c1ccccc1)c1ccccc1	1.5%	2.0	-0.9%	-3.0%	1.6%[38.3 µM]	-3.9	15.8µM*
NNC(=O)c1sc(-c2ccc(Cl)cc2)cc1N	0.4%	-4.2	.	-1.4%	2.1%	-1.4	11.6%
COc1ccc(-c2noc(CCC(=O)Nc3cc(Cl)c(OC)cc3OC)n2)cc1	-18.9%	1.6	-1.6%	-36.2%[inhibitor]	3.6%	-0.1	-2.7%
CSCCNC(=O)c1ccc2nc(Cc3ccccc3F)oc2c1	5.8%	2.1	0.6%	-1.2%[15.4 µM]	0.0%	3.2	19.5%
CC(=O)Nc1ccc(NC(=S)NC(=O)c2ccc([N+](=O)[O-])c(C)c2)cc1	-8.9%	1.7	2.7%	-29.9%	0.7%	-1.3	-13.3%
CCOC(=O)C1=C(C)N(C)C(=S)NC1c1ccc(Cl)cc1 (stereo unspecified)	-8.5%	-2.1	0.2%	-4.4%	1.5%	0.5	-10.3%
O=C(COC(=O)COc1ccc(Cl)cc1)NC1CCCCC1	-5.3%	0.6	-0.3%	0.8%	0.0%	-1.8	11.9%
O=C1c2cc(O)c(O)cc2S(=O)(=O)C1c1ccccc1 (stereo unspecified)	8.5%	.	-2.3%	.	1.9%	0.1	.
COc1ccc(Cl)cc1S(=O)(=O)N1CCN(C)CC1	2.0%	4.6	-0.1%	22.5%	2.2%	-5.0	-8.2%
N#CCCSCc1ccc(C(=O)O)o1	8.1%	1.2	-1.1%	-40.3%[inhibitor]	1.5%[38.3 µM]	-1.2	17.8%

Not a retest: two of the compounds above.
SMILES	gsp antag	Menin-MLL FL inh	ClpP mod	gsp agonist	PINK1 expr mod	D2 agonist	Sfp PPTase inh
COc1ccc(Cl)cc1S(=O)(=O)N1CCN(C)CC1	2.0%	4.6	-0.1%	22.5%	2.2%	-5.0	-8.2%
N#CCCSCc1ccc(C(=O)O)o1	8.1%	1.2	-1.1%	-40.3%[inhibitor]	1.5%[38.3 µM]	-1.2	17.8%

(listing goes on)
SMILES	gsp antag	Menin-MLL FL inh	ClpP mod	gsp agonist	PINK1 expr mod	D2 agonist	Sfp PPTase inh
CCOC(=O)c1c(C)[nH]c(C)c1C(=O)COC(=O)c1cccc(C)c1O	4.8%	5.0	-16.5%	-32.5%[inhibitor]	?	-3.9	0.7%
Cc1csc(SCC(=O)N2CCCC2)n1	3.7%	0.1	-7.0%	24.7%	2.9%	-3.4	11.5%
CCC(C(=O)NCCCc1ccccc1)c1ccccc1 (stereo unspecified)	0.1%	6.9	0.6%	-31.9%[inhibitor]	2.1%	-6.4	11.0%
CCc1ccc(C(=O)NNC(=O)c2ccc(=O)n(C)n2)cc1	9.9%	.	-1.1%	-23.0%	0.5%	-4.1	-21.9%
Cc1csc(C(=O)NCC(=O)NNC(=O)c2cccc(Cl)c2)c1	14.6%	.	2.0%	24.5%	0.3%	-3.3	-2.2%
COc1cc(/C=C/C(=O)O)cc(S(=O)(=O)Nc2cccc(S(=O)(=O)N3CCOCC3)c2)c1OC	12.0%	2.4	-5.5%	2.9%	4.4%	0.4	15.8%
COc1cc(/C=C/C(=O)NCC2CCCCC2)cc(OC)c1OC	2.6%	2.0	.	-9.4%[15.4 µM]	1.3%	-2.9	7.2%
O=C(NCCc1csc(-c2cccnc2)n1)c1ccccc1Br	-3.5%	1.7	-17.0%	?	0.2%	0.1	-1.2%
O=C(N/N=C/c1cccn1-c1ccccc1)c1ccncc1	-6.3%	-3.7	.	10.4%[15.4 µM]	9.5%	-5.1	4.0%
O=C1C2CCCN2C(c2ccccc2)N1c1ccc(Cl)cc1 (stereo unspecified)	7.1%	2.6	-0.4%	-1.7%	0.7%	-0.3	6.2%
O=C(O)CCCn1cc(NC(=O)COc2ccccc2[N+](=O)[O-])cn1	6.0%	1.1	.	-4.0%	-1.2%	-0.9	14.0%
O=C(CN1CCN(c2ccccc2F)CC1)N1CCc2ccccc21	5.1%	.	.	1.5%[15.4 µM]	2.5%	-0.9	9.1%
O=C(CCN1CCOCC1)NNC(=S)NC(=O)c1ccc(Br)cc1	-0.7%	-0.3	.	-1.0%[15.4 µM]	7.7%	-5.0	-7.8%
CCOc1ccccc1NC(=O)CCS(=O)(=O)c1cccc2nsnc12	4.5%	1.5	-2.4%	-14.4%[15.4 µM]	0.9%&0.4%	-3.1	20.4%
O=C(O)c1cc(-c2cccc3ccccc23)nc2ccccc12	-29.9%	?	.	-18.1%	3.3%	3.4	17.0%
CNc1ccc(/C=C\CCCO)cn1	.	.	5.2%	.	-0.2%	-6.2	.
O=C1Nc2cccnc2Sc2ccccc21	-10.7%	0.8	-0.5%	-7.6%	-0.7%[38.3 µM]	-2.5	-1.4%
CC(=O)/C(N=Nc1cc2c(c([N+](=O)[O-])c1C)C(C)(C)CC2(C)C)=C(\C)O	1.2%	5.5	-1.4%	-0.4%[15.4 µM]	8.0%	1.7	-24.6%
O=C(OCC(=O)N(Cc1ccccc1)C1CCS(=O)(=O)C1)c1cc2c(s1)CCCC2 (stereo unspecified)	-2.0%	.	-5.9%	16.9%	0.0%	-0.6	-12.8%
CC(C)Oc1ccc(C(=O)NC2CCCCC2)cc1	-1.1%	2.6	2.3%	-4.8%	3.0%	-0.9	11.2%
CCN(CC)C(=O)Cn1cc(C(=O)C(=O)N2CCN(c3ccc([N+](=O)[O-])cc3)CC2)c2ccccc21	-12.9%	.	1.1%	-67.7%[inhibitor]	3.2%	-1.5	10.9%
Cn1c(N)c(C(=O)COC(=O)c2ccc(Cl)c(S(=O)(=O)N3CCCC3)c2)c(=O)n(C)c1=O	-11.2%	-2.1	-1.0%	2.8%	0.5%	-3.7	-3.9%
CC(C)Cc1ccc(CN2CCCC(NC(=O)c3ccoc3)C2)cc1 (stereo unspecified)	-2.7%	.	-0.4%	24.9%	6.5%	-4.9	11.4%
CCOC(=O)C1=C(C)NC(=O)NC1/C(C)=C/c1ccccc1 (stereo unspecified)	-1.2%	2.5	-1.6%	1.4%	-2.5%[38.3 µM]	0.2	28.1%
COc1cc(OC)nc(NC(=O)COC(=O)C2CCCCC2)n1	10.3%	3.8	0.2%	10.5%	-0.3%	-1.2	-1.4%
C=CCN(CC=C)Cc1cc(=O)n2c(-c3ccccc3)csc2n1	-4.6%	-2.1	.	-20.3%	-1.3%	0.5	-0.5%
CSc1cccc(NC(=S)N(CCCN2CCC(C)CC2)Cc2cccs2)c1	-5.1%	-0.6	.	0.9%[15.4 µM]	?	-2.6	6.2%
N/C(=N/O)c1ccccc1N1CCC(Cc2ccccc2)CC1	0.4%	0.8	-4.0%	-0.1%	5.0%	0.7	-4.6%
COc1ccc2c(c1)C=C(CN1CCN(C(C)C)C(CCO)C1)CO2 (stereo unspecified)	2.3%	1.8	.	-2.5%[15.4 µM]	0.5%	0.1	7.8%
CC(C)(C)C(=O)NCCc1nc2ccccc2n1CC(=O)c1ccccc1	3.4%	3.6	0.3%	8.9%	0.0%	0.7	9.9%
CCN(Cc1nc(-c2cccc(C)c2)no1)C(=O)c1ccco1	-1.1%	3.7	.	1.4%[15.4 µM]	0.2%	-0.5	-3.1%
Cc1cccc(C(=O)NCC(=O)OCC(=O)c2cc(C)n(CC3CCCO3)c2C)c1 (stereo unspecified)	0.5%	-8.1	2.1%	-2.1%[15.4 µM]	3.0%	-0.3	-69.4%
CCOCCCn1c(SCC(=O)Nc2ccc3[nH]c(=O)[nH]c3c2)nc2ccccc2c1=O	-0.5%	.	-2.6%	6.5%	6.2%	1.3	.
COC(=O)c1ccc(C2CC(=O)Nc3cc(OC)c(OC)cc32)cc1 (stereo unspecified)	7.1%	-1.6	-8.8%	-36.3%[inhibitor]	.	3.5	14.2%
O=C(COc1cc(F)ccc1[N+](=O)[O-])Nc1cccc(S(=O)(=O)NC2=NCCC2)c1	-13.4%	.	1.5%	18.9%	3.8%	10.2	.
O=C(CSc1nc(=O)n(CCCN2CCOCC2)c2c1CCC2)Nc1ccccc1F	-4.0%	.	.	-13.8%[15.4 µM]	3.7%	-3.8	.
CCCCC(=O)Nc1ccc(NCc2ccc(C)s2)cc1	-3.1%	16.7	9.1%	0.3%	-0.2%	-4.2	4.6%
CCC1=NN2C(=N)/C(=C\c3ccc(SCc4ccco4)o3)C(=O)N=C2S1	-18.7%	?	-1.8%	-10.8%[15.4 µM]	1.1%	-4.1	44.7µM*

Compounds above that contain an aryl methoxy group, in the order listed:
SMILES	gsp antag	Menin-MLL FL inh	ClpP mod	gsp agonist	PINK1 expr mod	D2 agonist	Sfp PPTase inh
COc1ccc(-c2noc(CCC(=O)Nc3cc(Cl)c(OC)cc3OC)n2)cc1	-18.9%	1.6	-1.6%	-36.2%[inhibitor]	3.6%	-0.1	-2.7%
COc1ccc(Cl)cc1S(=O)(=O)N1CCN(C)CC1	2.0%	4.6	-0.1%	22.5%	2.2%	-5.0	-8.2%
COc1cc(/C=C/C(=O)O)cc(S(=O)(=O)Nc2cccc(S(=O)(=O)N3CCOCC3)c2)c1OC	12.0%	2.4	-5.5%	2.9%	4.4%	0.4	15.8%
COc1cc(/C=C/C(=O)NCC2CCCCC2)cc(OC)c1OC	2.6%	2.0	.	-9.4%[15.4 µM]	1.3%	-2.9	7.2%
COc1cc(OC)nc(NC(=O)COC(=O)C2CCCCC2)n1	10.3%	3.8	0.2%	10.5%	-0.3%	-1.2	-1.4%
COc1ccc2c(c1)C=C(CN1CCN(C(C)C)C(CCO)C1)CO2 (stereo unspecified)	2.3%	1.8	.	-2.5%[15.4 µM]	0.5%	0.1	7.8%
COC(=O)c1ccc(C2CC(=O)Nc3cc(OC)c(OC)cc32)cc1 (stereo unspecified)	7.1%	-1.6	-8.8%	-36.3%[inhibitor]	.	3.5	14.2%
